H5N1 CPE: antiviral screen in MDCK cells, H5N1 avian flu; cytopathic effect, luminescence, 72 h; active compounds read high; no value below 0 was filed and about half of the inactive calls have no number; reference of the scale not given here; inhibition, % at 50 µM; 96,000 compounds, 0.07% hits; AID 740; in the data active means inhibition above about 25%
* marks the source's active call; other numbers are inactive results; i = inactive. Not all compounds are listed; rates above refer to the full screens.

| canonical_smiles | H5N1 CPE |
| --- | --- |
| COc1ccccc1C1(CC(=O)N2CCOCC2)CCOC(C(C)C)C1 (stereo not drawn) | 0.3 |
| COc1c(N2CCN(C(=S)NCc3ccccc3)C(C)C2)c(F)cc2c(=O)c(C(=O)O)cn(C3CC3)c12 (stereo not drawn) | 4.7 |
| COc1ccccc1N(CC(=O)NC(C)(C)C)C(=O)Cn1nnc(-c2ccc(C)o2)n1 | 0.6 |
| COc1ccc2cc3cc(C(=O)NCC4CCCO4)oc3nc2c1 (stereo not drawn) | i |
| Cc1nn(C)c(C)c1S(=O)(=O)NCc1cccs1 | i |
| COc1ccc(S(=O)(=O)N2CCN(Cc3cccc(Cl)c3)CC2)cc1 | 2.8 |
| CCOC(=O)c1c(C)[nH]c(C(=O)COC(=O)CCC2CCCC2)c1C | i |
| Cc1cc(C)n(-c2nc3c(c(=O)[nH]c(=O)n3C)n2CC(O)COc2ccccc2C)n1 (stereo not drawn) | 0.4 |
| Cc1cccc(OCC(O)CN2C(C)(C)CC(O)CC2(C)C)c1C (stereo not drawn) | 0.9 |
| c1ccc(N2CC[N+]3(CCCC3)CC2)nc1 | i |
| CCOC(=O)c1c(C)c(C(=O)NCc2cccnc2)c(C)n1C | i |
| Cc1sc2ncnc(SCC#N)c2c1C | i |
| COc1ccc(CCNC(=O)C2CC2)cc1OC | 0.2 |
| CCOC(C(=O)OCC(O)CN(CC)CC)(c1ccccc1)c1ccccc1 (stereo not drawn) | i |
| C=CCn1c(-c2ccccc2)c[nH]c1=S | i |

Overlap with the part before: 3 entries; new compounds follow.
| canonical_smiles | H5N1 CPE |
| --- | --- |
| COc1ccc(CCNC(=O)C2CC2)cc1OC | 0.2 |
| CCOC(C(=O)OCC(O)CN(CC)CC)(c1ccccc1)c1ccccc1 (stereo not drawn) | i |
| C=CCn1c(-c2ccccc2)c[nH]c1=S | i |
| Clc1ccccc1-c1nnc2sc(C3COc4ccccc4O3)nn12 (stereo not drawn) | 0.1 |
| CCc1cccc(C)c1NC(=O)CSc1nnc(-c2cc3cc(Br)ccc3o2)n1CC | i |
| CCN(c1ccccc1)S(=O)(=O)c1cc(OC)ccc1OC | 0.7 |
| C(=C\c1ccccc1)/CSc1nnc(-c2ccncc2)n1Cc1ccco1 | 1.2 |
| CCOC(=O)C1=C(C)N(C)C(=O)NC1c1ccccc1OC (stereo not drawn) | 2.0 |
| COC(=O)CSc1nc(NC(C)=O)nc(C)c1Br | 1.1 |
| Cc1noc(C)c1S(=O)(=O)N1CCN(Cc2ccc3c(c2)OCO3)CC1 | 2.6 |
| Cc1cccc2cc(CN(CC3CCCO3)C(c3nnnn3Cc3ccco3)C(C)C)c(=O)[nH]c12 (stereo not drawn) | i |
| Cc1cc(C)c(S(=O)(=O)NNC(=O)C2CCN(Cc3ccccc3)CC2)c(C)c1 | i |
| COc1ccc(CC(=O)NC(C)(C)CC(C)=O)cc1OC | i |
| CCN1CCN(C(=O)Cc2coc3cc(C)cc(C)c23)CC1 | 2.0 |
| CCN(CC)S(=O)(=O)c1ccc(OC(C)C)nc1 | 0.5 |
| Cc1ccc(S(=O)(=O)Cc2ccc(C(=O)NCCCN3CCN(C)CC3)o2)cc1 | i |
| CCCC(=O)Nc1ccc(N2CCN(C(=O)CCC)CC2)cc1 | i |
| Cc1ccc(C(=O)c2nc3c(n2O)CCCC3)cc1 | i |
| O=S(=O)(c1ccccc1)c1nc(-c2ccco2)oc1N1CCOCC1 | 4.7 |
| Cc1nc(N2CCN(C(=O)c3ccc(Cl)cc3)CC2)c(C#N)c2c1COC(C)(C)C2 | 11.4 |
| COc1ccc(NC(=O)CSc2nnc(C3CCCCC3)n2-c2ccccc2)cc1 | 0.3 |
| Fc1cccc(NCc2cn3ccccc3n2)c1 | i |
| CC1CCC(N2CCN(c3ncccn3)CC2)C1 (stereo not drawn) | 0.7 |
| CCCCn1c(S(=O)(=O)O)nc2ccccc21 | 0.4 |
| Cc1ccc(C(=O)C2=C(O)C(=O)N(CCCn3ccnc3)C2c2ccc(OC(C)C)cc2)o1 (stereo not drawn) | 0.3 |
| CCCc1cc(=O)[nH]c(SCc2ccccc2Cl)n1 | 0.6 |
| COc1ccc(N2C(=O)C(Cl)=C(Nc3c(C)n(C)n(-c4ccccc4)c3=O)C2=O)cc1 | i |
| O=c1oc2cc(O)ccc2c2ccccc12 | i |
| [O-][n+]1ccc(C2CC2)cc1 | 0.5 |
| Cc1n[nH]c(C)c1N=Nc1cc(Cl)ccc1Cl | 0.4 |
| Cc1c(CC(=O)O)c(=O)oc2cc(OCc3nn[nH]n3)ccc12 | 1.5 |
| Cc1ccc(NC(=O)C2CC(=O)n3ncnc3N2)cc1 (stereo not drawn) | i |
| O=C(COC(=O)c1ccccn1)Nc1cccc(Cl)c1 | i |
| Cc1cc(-n2c(C)cc(C(=O)CSc3nnnn3-c3ccc(Cl)cc3)c2C)no1 | i |
| Cc1ccc2[nH]c3c(c2c1)CN(C(=O)CN1c2ccc(F)cc2CCC1C)CC3 (stereo not drawn) | i |
| O=C(Nc1ccc2c(c1)OCO2)c1c(F)c(F)c(F)c(F)c1F | i |
| CCOC(=O)c1ccoc1CSCc1ccc(C(=O)OC)o1 | 2.9 |
| O=c1[nH]c(NCc2ccccc2)nc2c1CCCC2 | 0.1 |
| OC(COc1ccc2ccccc2c1)CN1CCN(c2ccc(F)cc2)CC1 (stereo not drawn) | 0.2 |
| O=C(O)CSCC(=O)c1ccccc1 | i |
| COC(=O)c1ccccc1NC(=O)CN1CCOCC1 | 0.8 |
| COC(=O)C1CCN(C(=O)c2c(-c3ccccc3Cl)noc2C)CC1 | 1.3 |
| Cc1ccccc1N1C(=O)CC(Sc2nnc(-c3ccccc3)o2)C1=O (stereo not drawn) | i |
| CCc1noc(C)c1C(=O)Nc1nc(-c2cc(C)ccc2C)c(C)s1 | 1.1 |
| CCOC(=O)c1ccc(NC(=O)CSc2ncccn2)cc1 | i |
| CCCCn1nnnc1SCC(=O)Nc1sc2c(c1C#N)CCCC2 | 0.1 |
| Brc1ccc(-c2nnc3sc(CN4CCN(c5ccccc5)CC4)cn23)cc1 | 1.9 |
| CSCCC(Nc1ncnc2ccc(Br)cc12)C(=O)O (stereo not drawn) | i |

3 entries from above, with each value named:
Cc1ccccc1N1C(=O)CC(Sc2nnc(-c3ccccc3)o2)C1=O (stereo not drawn)
  H5N1 CPE: i

CCc1noc(C)c1C(=O)Nc1nc(-c2cc(C)ccc2C)c(C)s1
  H5N1 CPE: 1.1

CCOC(=O)c1ccc(NC(=O)CSc2ncccn2)cc1
  H5N1 CPE: i

(more compounds)
canonical_smiles	H5N1 CPE
Cc1oc(C(=O)O)cc1COc1ccc2c3c(c(=O)oc2c1)CCC3	i
CCOc1ccc(Br)cc1S(=O)(=O)Nc1nc(CN2CCOCC2)nc2sc(C)c(C)c12	i
O=S(=O)(Nc1ccc2c(c1)OCCO2)c1ccc(F)cc1	0.2
Cc1onc(-c2ccccc2)c1C(=O)Nc1ccccc1N1CCOCC1	i
CCSc1nc2sc3c(c2c(=O)n1CC)CC(C)(C)OC3	11.4
COc1ccc2c(Cl)c(C(N)=O)sc2c1	i
COCCNC(=O)C(c1ccco1)N(C(=O)Cn1nnc2ccccc21)c1cccc(C)c1C (stereo not drawn)	1.4
CCOC(=O)c1cccc(NC(=O)c2cnccn2)c1	i
O=C(COc1ccccc1)NCCSc1ccccc1	i
CCCCOC(=O)c1ccc(NC(=O)CSC2=Nc3ccccc3C3CC=NN23)cc1 (stereo not drawn)	0.1
C=CCn1c(SCC(=O)Nc2cccc3ccccc23)nnc1-c1cnccn1	i
O=C(NCc1ccccn1)Nc1cccc(Cl)c1	i
CC1=C(C(=O)OCC(C)C)C23C(=O)c4ccccc4C2(O1)OC(N)=C3C#N (stereo not drawn)	i
CN1CCN(C(=S)NC(=O)/C=C/c2ccccc2)CC1	i
CC(C)(C)NC(=O)Cn1c(-c2nonc2N)nc2ccccc21	5.2
CCCCNC(=O)CCc1c(C)nc2nc(-c3cc(OC)cc(OC)c3)nn2c1C	i
O=C(Nc1ccc(N2CCN(C(=O)c3ccccc3)CC2)cc1)c1ccc2c(c1)OCO2	i
CCOC(=O)c1c(C)c(P(=S)(N2CCOCC2)N2CCOCC2)n(C)c1C	0.8
CCOc1ccccc1C(=O)NC1CCN(Cc2nnnn2C2CCCC2)CC1	1.4
COC(=O)c1c(NC(=S)Nc2ccccc2Cl)sc(C)c1C	i
N#Cc1cc([N+](=O)[O-])ccc1Oc1cccc(/C=N/NC(=O)c2cccc(Cl)c2)c1	i
CCCOc1cc(C)c(S(=O)(=O)N2CCN(C)CC2)cc1C	0.3
CCOc1cc(C2NN=C(c3ccccc3)S2)ccc1OCc1ccccc1Cl (stereo not drawn)	i
O=C(CC1Nc2ccccc2NC1=O)c1ccccc1 (stereo not drawn)	i
CC(C)CCNc1ncnc2c1nnn2Cc1ccccc1Cl	i
Cc1sc2ncnc(SCC(=O)N3CCC(c4noc5ccc(F)cc45)CC3)c2c1C	i
CCOC(=O)c1cc(OC(=O)c2cccc([N+](=O)[O-])c2)n(-c2ccccc2)n1	i
COCCN1C(=O)C(=O)/C(=C(/O)c2cccc(S(=O)(=O)N(C)C)c2)C12C(=O)N(C)c1ccccc12 (stereo not drawn)	i
CC1(C)CC(N2CCC(=O)N(C3CC(C)(C)NC(C)(C)C3)C2)CC(C)(C)N1	i
CC(=O)c1ccc(OCC(O)CN2C(C)CCCC2C)cc1 (stereo not drawn)	0.8

3 of the compounds above, field by field.
smiles: CCOC(=O)c1c(C)c(C(=O)NCc2cccnc2)c(C)n1C
  H5N1 CPE: i

smiles: CCc1cccc(C)c1NC(=O)CSc1nnc(-c2cc3cc(Br)ccc3o2)n1CC
  H5N1 CPE: i

smiles: COCCNC(=O)C(c1ccco1)N(C(=O)Cn1nnc2ccccc21)c1cccc(C)c1C (stereo not drawn)
  H5N1 CPE: 1.4

(more compounds)
canonical_smiles	H5N1 CPE
O=C1CCN(Cc2nnnn2CC2CCCO2)c2ccccc2N1 (stereo not drawn)	0.5
COc1c(S(=O)(=O)n2nc(C)cc2C)ccc(Cl)c1Cl	0.3
FC(F)(F)c1cc(-c2ccco2)nc(N2CCOCC2)n1	i
Cc1cccc(NC(=O)C2CCCN(S(=O)(=O)c3cccc4cccnc34)C2)c1 (stereo not drawn)	3.6
CCOC(=O)c1c(NC(=O)c2ccc(C)cc2)sc2c1CC(C)(C)OC2	i
CCc1cccc(CC)c1N(COC)C(=O)Cn1c(CO)nc2ccccc21	1.4
COc1ccc(/C=N/NC(=O)c2nn(-c3ccc(Cl)cc3)c(=O)c3c(N)scc23)cc1	i
CC(=O)c1c(C)[nH]c(C(=O)N2CCN(C(=O)c3ccco3)CC2)c1C	0.4
CCN(CC)C(=O)N1CCN(S(=O)(=O)c2ccc(C)c(C)c2)CC1	2.9
Cc1ccc(C)c(N(C(=O)Cc2cccs2)C(C(=O)NC2CCCC2)c2ccc(C)o2)c1 (stereo not drawn)	i
CCCCn1c(CN2C(=O)c3ccccc3C2=O)nc2ccccc2c1=O	i
Nn1c(-c2ccco2)n[nH]c1=S	i
COCCNC(=S)N1C2CCC1CC(NC(=O)NC13CC4CC(CC(C4)C1)C3)C2 (stereo not drawn)	0.5
O=C(NNC(=O)c1cc(-c2ccc(Cl)cc2Cl)nc2ccccc12)Nc1ccccc1	i
c1ccc2sc(N3CCOCC3)nc2c1	0.7
Cc1cc(=S)[nH]c2c(C)cccc12	0.7
COc1ccccc1-c1cc(C(=O)Nc2sc3c(c2C#N)CCC(C)C3)c2ccccc2n1 (stereo not drawn)	i
O=C(NCC1CCCO1)C1C2C=CC3(CN(Cc4cccs4)C(=O)C13)O2 (stereo not drawn)	i
CCOC(=O)c1c(C)[nH]c(=S)c(C#N)c1-c1ccc(OC)cc1	i
COC(=O)c1c(NC(=O)Cc2cccs2)sc2c1CCCC2	i
CCN1CCN(CCCNC(=O)c2cc3sccc3n2CC)CC1	3.1
COc1cccc(N2C(=O)C3CC=C(Cl)CC3C2=O)c1 (stereo not drawn)	0.5
O=C(Cc1c(O)c2ccccc2[nH]c1=O)NCc1ccc(F)cc1	0.0
Cc1c(F)cccc1NC(=O)CCC(=O)O	1.3
Cc1ccccc1-c1cc(-c2ccccc2O)n[nH]1	1.6
CCN1C(=O)C(O)(CC(=O)c2ccccn2)c2ccccc21 (stereo not drawn)	i
COc1ccc2c(CC(=O)N3CCc4ccccc43)coc2c1	i
COc1cccc(C(=O)NCc2n[nH]c(=S)n2-c2cccc(C)c2)c1	i
CCOC(=O)C1CN(S(=O)(=O)c2ccc(OC)cc2)c2cc(CC(=O)OC)ccc2O1 (stereo not drawn)	i
O=C1CC(c2ccc(Cl)cc2)n2nc(N3C(=O)c4ccccc4C3=O)nc2N1 (stereo not drawn)	i
O=C(c1ccccc1S(=O)(=O)NCc1ccccc1)N1CCCC1	i
COc1cccc(C(=O)Nc2ccc(C(=O)O)cc2)c1	i
O=C1C2CC=C(Cl)CC2C(=O)N1CC1OCCc2ccccc21 (stereo not drawn)	0.5
COc1cccc(NC(=O)CNC(=O)c2cccs2)c1	1.7
CCOc1ccc(NC(=O)CC2C(=O)N(c3ccccc3)C(=O)N2Cc2ccccn2)cc1 (stereo not drawn)	i
CCCc1cc(=O)[nH]c(SCC(=O)N(C)CC(=O)Nc2ccccc2CC)n1	1.9
COC(=O)/C=C(\C)NC(=O)c1ccc(F)cc1	0.7
COC(=O)c1cccc(NS(=O)(=O)c2ccc(NC(C)=O)cc2)c1C	1.9
O=C(Cn1cnc2ccccc2c1=O)OCC(=O)c1ccc2c(c1)OCCO2	i
CNC(=O)Nc1cccc(C(F)(F)F)c1	i
COc1cc(NC(=O)Cc2cccs2)cc(OC)c1	i
COC(=O)c1cc(Br)c(=O)n(CCN2CCCC2)c1	1.1
COc1cccc(C2C([N+](=O)[O-])=C(N)Oc3c2c(=O)oc2ccccc32)c1 (stereo not drawn)	0.4
CC1CN(C(=O)CCc2ccccc2)C(C)CN1C(=O)CCc1ccccc1 (stereo not drawn)	2.9
Cc1cnnn1-c1ccc(C(=O)CCl)cc1	3.2
COC(=O)c1cc(C(=O)OC)n(Cc2ccc(Cl)cc2Cl)n1	i
CCCc1nc(N)c(C#N)c(N)c1C#N	i
N#CC1=C(SCC(=O)NCc2ccccc2)NC(=O)CC1c1ccco1 (stereo not drawn)	i

Compound activity: PubChem, SRMLSC
